VDR inhibitor = Inhibitors of the vitamin D receptor (VDR): qHTS | hit rate 0.93% among 400,000 | VDR-SRC2-3 peptide fluorescence polarization, 2 h | Vitamin D3 receptor (Homo sapiens), P11473 | Potency, µM, for the others: max response, negative = inhibition, hits mostly inhibitors | AID 504847, 2011; active = well fitted inhibition curve with a large enough effect; inconclusive = small, poorly fitted or top-dose-only effect, or another doubt; inactive = no such curve, though single readings can be large or run the other way; also: series mostly up to about 120 µM
Target sequence (P11473 whole entry, looked up): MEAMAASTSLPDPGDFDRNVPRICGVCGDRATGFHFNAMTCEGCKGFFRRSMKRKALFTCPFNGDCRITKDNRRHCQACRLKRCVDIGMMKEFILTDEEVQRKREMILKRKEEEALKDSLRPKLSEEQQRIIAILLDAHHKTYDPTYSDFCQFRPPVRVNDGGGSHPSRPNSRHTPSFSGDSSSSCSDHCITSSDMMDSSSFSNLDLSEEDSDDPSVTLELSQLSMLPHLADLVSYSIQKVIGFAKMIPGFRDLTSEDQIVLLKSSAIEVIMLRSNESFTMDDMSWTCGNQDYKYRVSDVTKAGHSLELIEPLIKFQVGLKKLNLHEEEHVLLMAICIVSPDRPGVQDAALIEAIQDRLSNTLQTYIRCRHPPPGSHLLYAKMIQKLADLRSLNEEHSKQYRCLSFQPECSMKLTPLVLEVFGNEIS
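Measured by FP: displacement of SRC2-3 coactivator peptide from VDR by library compounds, following a two-hour ambient incubation.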
An asterisk follows results filed as active; ? = inconclusive; & = joins results of further samples; [ ] = dose if it differs, or a comment. % is scaled to controls: 0 for no effect and ±100 for the full control effect; potency is read from the fitted curve at half-maximal effect.

SMILES	VDR inhibitor
Cc1cc(=O)oc2cc(OCC(=O)N3c4ccccc4NC(=O)C3(C)C)ccc12	-3%
COc1ccc(CNC(=O)c2ccc(C(C)(C)C)cc2)cc1	-16%
CC(=O)NC(=S)Nc1cccc2ccc(C)nc12	6%
Cn1nnc(NC(=O)COc2ccc(C3CCCCC3)cc2)n1	0%
Cc1csc(NC(=O)Cc2c[nH]c3ccccc23)n1	7%
CC(C)(C)C(=O)Nc1ccccc1N1CCN(c2ccc(F)cc2)CC1	-20%
COc1c(C)cccc1C(=O)Nc1cc(Cl)ccc1N1CCOCC1	-2%
Cc1csc2nc(COC(=O)c3ccccc3NC(=O)c3ccc(F)cc3)cc(=O)n12	2%
COC(=O)COc1cc(OCC(=O)OC)c2c(-c3ccccc3)cc(=O)oc2c1	-5%
O=C(Cc1ccc(F)cc1)NCc1nc2cccnc2n1Cc1ccc(F)cc1	8%
COc1ccc(Oc2coc3c(CN(C)C)c(O)ccc3c2=O)cc1	-8%
Cc1cc(F)ccc1NC(=O)CCS(=O)(=O)c1ccc2c(c1)CC(C)N2C(=O)C1CC1 (stereo unspecified)	6%
CC1(C)CC(=O)c2cc(O)ccc2O1	-16%
COc1ccc(C(=O)Nc2ccc(OC)c([N+](=O)[O-])c2)cc1Br	9%
Cc1nn2c(=O)cc(COc3ccc(/C=C(\C#N)C(=O)Nc4ccc(F)cc4)cc3)nc2s1	-3%
CC(=O)N1CCN(CC(=O)Nc2c(Cl)cccc2Cl)CC1	13%
COc1ccccc1CNC(=O)C1CC2Cn3c(nc4ccccc43)C2N1C (stereo unspecified)	-7%
OC(COc1cccc2ccccc12)CN1CCN(c2ccccc2)CC1 (stereo unspecified)	-2%
CCOc1ccc(NC(=O)c2cc3cc4ccc(C)cc4nc3o2)cc1	-18%
CC(=O)c1c(C)oc2ccc(NS(=O)(=O)c3ccc(C)cc3)cc12	-1%
COc1ccc2c(=O)c3c(=O)n(CCc4ccccc4)c(C(C)C)nc3oc2c1	-2%
O=C(c1ccc(Cl)cc1)N1CCN=C1c1ccccc1	-15%
Cc1ccc(S(=O)(=O)NC(C)C(=O)NC(C)c2cccs2)cc1 (stereo unspecified)	1%
CCN(CC)CCNC(=O)c1c(C)oc2cc(Br)c(OC)cc12	2%
CCNc1ncc2nc(-c3cn(C)c4ccccc34)c(=O)n(-c3ccccc3)c2n1	-3%
Oc1c(C=Nc2ccccc2)sc2ccccc12	23%
O=C(O)CSc1nnc(COc2ccc(Br)cc2)n1-c1ccccc1	-9%
CC(=O)Nc1ccc(NC(=O)C2CCCN(S(=O)(=O)c3ccc4c(c3)CCCC(=O)N4)C2)cc1 (stereo unspecified)	2%
O=C(Nc1nc(-c2ccccc2)cs1)c1ccco1	-8%
Cc1ccccc1NCCNc1ccccc1C	0%
CSCCC(NC(=O)c1ccccc1Cl)C(=O)N1CCCCCCC1 (stereo unspecified)	-17%
COCCn1nnnc1CN(CCc1ccc(OC)c(OC)c1)Cc1cc2ccc(C)cc2[nH]c1=O	16%
CS(=O)(=O)N(CC(N)=O)c1ccc(F)c(Cl)c1	-9%
C#CCOCCOCCOCCNc1nc(N2CCN(C(=O)[C@H]([C@@H](C)O)n3cc(CCCCN)nn3)CC2)nc(N2CCN(C(=O)[C@H]([C@@H](C)CC)n3cc(CCCCN)nn3)CC2)n1	-4%
Cc1ccc(C2(C)NC(=O)N(CC(=O)Nc3ccc4c(c3)CCC4)C2=O)cc1 (stereo unspecified)	-10%
CCOC(=O)N1CCN(C(=O)Cn2ncn3nc(-c4cccs4)cc3c2=O)CC1	-7%
Nc1nnnn1/N=C/c1cccc(OCc2ccccc2Cl)c1	-20%
CCCCOc1ccccc1NC(=O)CC1Nc2ccccc2NC1=O (stereo unspecified)	5%
Cc1nn(Cc2ccccc2Cl)c(C)c1C(=O)NCc1ccco1	-10%
COc1ccccc1CN(CC(=O)NCc1ccc2c(c1)OCO2)C(=O)c1ccc2c(c1)OCCO2	6%

Taken from the entries so far, six compounds:
SMILES	VDR inhibitor
Cc1ccc(S(=O)(=O)NC(C)C(=O)NC(C)c2cccs2)cc1 (stereo unspecified)	1%
CCN(CC)CCNC(=O)c1c(C)oc2cc(Br)c(OC)cc12	2%
CCNc1ncc2nc(-c3cn(C)c4ccccc34)c(=O)n(-c3ccccc3)c2n1	-3%
Oc1c(C=Nc2ccccc2)sc2ccccc12	23%
O=C(O)CSc1nnc(COc2ccc(Br)cc2)n1-c1ccccc1	-9%
CC(=O)Nc1ccc(NC(=O)C2CCCN(S(=O)(=O)c3ccc4c(c3)CCCC(=O)N4)C2)cc1 (stereo unspecified)	2%

More results:
SMILES	VDR inhibitor
Cc1cc(NC(=O)Cn2nc(C(F)(F)F)c3c2CCC3)n(-c2ccccc2)n1	9%
Cc1ccc(S(=O)(=O)N2CCOCC2)cc1C(=O)NC1CCN(Cc2ccccc2)CC1	-17%
COc1ccc2[nH]c(=O)c(CN(c3ccccc3OC)S(=O)(=O)c3ccccc3)cc2c1	2%
CCCCC1=NN(C(=O)c2cccnc2)C(O)(C(F)(F)F)C1 (stereo unspecified)	-15%
COc1ccc(C2=NOC(COc3ccc4c(C)cc(=O)oc4c3)C2)c(OC)c1 (stereo unspecified)	-21%
COc1ccc(-n2cc(-c3ccc4c(c3)OCO4)n(CC(=O)Nc3cccc(C)c3C)c2=O)c(OC)c1	-13%
CCc1nnc(NCn2nc(C)cc2C)s1	21%
CCOc1ccc(CCNC(=O)COC(=O)c2ccc(S(C)(=O)=O)cc2)cc1OCC	3%
CCCNC(=O)CSc1ccc(S(=O)(=O)N2CCCC2)cn1	-13%
CC1(C)CC(NC(=O)c2cccc(S(=O)(=O)N(Cc3ccccc3)c3ccccc3)c2)CC(C)(C)N1	-25%
CSc1nnc(N2C(=O)C(O)=C(C(=O)c3ccco3)C2c2ccccc2F)s1 (stereo unspecified)	-14%
O=C(CN1C(=O)COc2ccc(Cl)cc21)Nc1ccc2c(c1)OCCO2	5%
COc1ccc(C2=C(C)C(=O)N(Cc3ccc(C(=O)NCc4ccccc4C)cc3)S2(=O)=O)cc1	-1%
O=C(c1ccc([N+](=O)[O-])c(CS(=O)(=O)c2ccc(Cl)cc2)c1)N1CCCC1	-3%
Cc1cc(C)nc(N/N=C/c2cc(Br)ccc2O)n1	-2%
CN(C)CCCNC(=S)NCCNc1nc2cc3c(cc2cc1C#N)OCO3	-15%
O=C(CN1CCN(Cc2ccc(F)cc2)CC1)Nc1ccccc1F	-2%
Cc1oc(C)c(C(N)=O)c1C(N)=O	1%
COC(=O)c1cccn(CC(=O)c2ccc(Cl)cc2Cl)c1=O	-13%
COC(C/C=C\[C@@H](O)[C@@H](C)OCc1ccccc1)OC	13%

Four compounds picked at random from the list so far, as already listed:
SMILES	VDR inhibitor
Cc1oc(C)c(C(N)=O)c1C(N)=O	1%
CC1(C)CC(NC(=O)c2cccc(S(=O)(=O)N(Cc3ccccc3)c3ccccc3)c2)CC(C)(C)N1	-25%
COc1ccc(-n2cc(-c3ccc4c(c3)OCO4)n(CC(=O)Nc3cccc(C)c3C)c2=O)c(OC)c1	-13%
O=C(c1ccc([N+](=O)[O-])c(CS(=O)(=O)c2ccc(Cl)cc2)c1)N1CCCC1	-3%

(listing goes on)
SMILES	VDR inhibitor
Cc1cccc(N/C=C/c2onc(C)c2[N+](=O)[O-])c1	-1%
Cc1ccn2c(=O)nc(SCC(=O)N3CCCCC3)nc2c1	-8%
FC(F)(F)c1ccccc1-c1cncnc1NCc1cccnc1	-9%
CCOC(=O)C(=CNc1cc(OC)ccc1-n1cccc1)C(=O)OCC	-27%
CC(=O)c1ccc(Nc2c(C)n(C)n(-c3ccccc3)c2=O)cc1	-17%
O=S(=O)(/C=C/c1ccccc1)Nc1ccc(F)cc1	-4%
COc1ccc(/C=C/C(=O)NC(C)CCc2ccccc2)cc1 (stereo unspecified)	-6%
O=C(NCCCNc1ccnc2cc(Cl)ccc12)c1ccccc1F	-6%
O=c1[nH]c2ccccc2cc1CN(Cc1ccco1)S(=O)(=O)c1ccccc1	-17%
CC(C)(C)NC(=O)Nc1nnc(SCC(=O)NC2CCCCC2)s1	-14%
COc1ccc(NC(=O)Cn2c(=O)c3ccccc3n3nncc23)c(OC)c1	4%
CCCCC(=O)Nc1ccc2c(c1)OCCO2	2%
CC(=O)Nc1cccc(-c2csc(Nc3ccccn3)n2)c1	11%
CCc1nnc(NC(=O)c2ccc(Cl)c(S(=O)(=O)N3CCc4ccccc4C3)c2)s1	-13%
CC(OC(=O)c1nsc(Cl)c1Cl)C(=O)NCc1ccco1 (stereo unspecified)	-10%
O=C(COC(=O)C1CCN(c2ccc(C(F)(F)F)cn2)CC1)NCc1ccc(F)cc1	0%
COc1ccc(CCNC(=O)CSc2ncc3c(n2)-c2cc(Cl)ccc2N(Cc2ccccc2)S3(=O)=O)cc1OC	-2%
CCOC(=O)C1CCN(CCC(=O)Nc2ccc(Br)c(C)c2)CC1	-8%&-22%
CCN(CC)C(=O)Cn1c(=O)oc2ccccc21	-2%
O=C(c1ccccc1O)N1CCOCC1	13%

Compounds shown so far with an aryl thioether with sulfur outside any ring, in the order listed:
SMILES	VDR inhibitor
O=C(O)CSc1nnc(COc2ccc(Br)cc2)n1-c1ccccc1	-9%
CCCNC(=O)CSc1ccc(S(=O)(=O)N2CCCC2)cn1	-13%
CSc1nnc(N2C(=O)C(O)=C(C(=O)c3ccco3)C2c2ccccc2F)s1 (stereo unspecified)	-14%
Cc1ccn2c(=O)nc(SCC(=O)N3CCCCC3)nc2c1	-8%
CC(C)(C)NC(=O)Nc1nnc(SCC(=O)NC2CCCCC2)s1	-14%
COc1ccc(CCNC(=O)CSc2ncc3c(n2)-c2cc(Cl)ccc2N(Cc2ccccc2)S3(=O)=O)cc1OC	-2%

Next part:
SMILES	VDR inhibitor
Nc1nc(SCC(=O)NCc2ccc3c(c2)OCO3)n[nH]1	-7%
O=C(NS(=O)(=O)Nc1ccccc1)C1=C(N2CCCC2)COC1=O	-16%
CCOC(=O)c1ccc(S(=O)(=O)NNC(=O)COc2ccc(C)cc2)cc1	-12%
Cc1cccc(NC(=O)CN2CCN(CC(=O)Nc3cccc(C)c3)CC2)c1	-6%
CSc1ccccc1C(=O)Nc1cccc([N+](=O)[O-])c1C	13%
O=S(=O)(c1cccc2nonc12)N1CCN(c2ccc(F)cc2)CC1	-11%
COC(=O)C1=C(C)NC(C)=C(C(=O)OC)C1c1ccc(-c2cccc([N+](=O)[O-])c2)o1	-15%
O=C(NC1CCN(C(=O)N2c3ccccc3Sc3ccccc32)CC1)c1ccccc1F	7%
O=C(Nc1cccc(S(=O)(=O)N2CCCCCC2)c1)c1ccc2ccccc2n1	-6%
O=[N+]([O-])c1ccc(NCCCNS(=O)(=O)c2ccc(Cl)cc2)c(Cl)c1	-7%
O=C(CSc1nc(-c2ccccc2)cc(=O)[nH]1)N1CCc2ccccc21	?
O=S(=O)(c1ccc2c(c1)OCCO2)N1CCC(O)(c2ccc(Cl)cc2)CC1	-2%
O=C(N/N=C/c1cccc([N+](=O)[O-])c1)c1cc(-c2ccc3c(c2)OCO3)n[nH]1	39%[activator]
CC(=O)c1ccc(-n2c(-c3cc(-c4ccsc4)n[nH]3)n[nH]c2=S)cc1	4%
COc1ccc(OC)c(NC(=O)CSc2c3c(nc4cc(Cl)ccc24)CCCC3)c1	-23%
Cc1cccc(N2CCN(C(=O)C3CCN(S(=O)(=O)c4c(C)noc4C)CC3)CC2)c1C	-16%&-11%
Oc1[nH]c2ccc(Br)cc2c1N=NC(=S)NCC1CCCO1 (stereo unspecified)	-10%
c1ccc(NC2=NCCN2CCCC2CCCC2)cc1	-17%
COc1ccc(OC)c(S(=O)(=O)N2CCC(C(=O)N3CCCC3)CC2)c1	8%
C=C1CCC2C(CC2(C)C)C(=C)CC/C1=N/O (stereo unspecified)	-9%

Screens from PubChem.

Some of the compounds tested (hit frequency here may not be typical).
